Assay outcomes from PubChem.
VDR inhibitor – Inhibitors of the vitamin D receptor (VDR): qHTS. Potency, µM, for inactives: max response, negative = inhibition, actives largely listed as inhibitors. VDR-SRC2-3 peptide fluorescence polarization, 2 h. AID 504847, 2011. 400,000 compounds, 0.93% hits. Vitamin D3 receptor (Homo sapiens), P11473; active means well fitted inhibition curve with a large enough effect; inconclusive means small, poorly fitted or top-dose-only effect, or another doubt; inactive means no such curve, though single readings can be large or run the other way; further: series mostly up to about 120 µM
Target sequence (P11473 whole entry, looked up): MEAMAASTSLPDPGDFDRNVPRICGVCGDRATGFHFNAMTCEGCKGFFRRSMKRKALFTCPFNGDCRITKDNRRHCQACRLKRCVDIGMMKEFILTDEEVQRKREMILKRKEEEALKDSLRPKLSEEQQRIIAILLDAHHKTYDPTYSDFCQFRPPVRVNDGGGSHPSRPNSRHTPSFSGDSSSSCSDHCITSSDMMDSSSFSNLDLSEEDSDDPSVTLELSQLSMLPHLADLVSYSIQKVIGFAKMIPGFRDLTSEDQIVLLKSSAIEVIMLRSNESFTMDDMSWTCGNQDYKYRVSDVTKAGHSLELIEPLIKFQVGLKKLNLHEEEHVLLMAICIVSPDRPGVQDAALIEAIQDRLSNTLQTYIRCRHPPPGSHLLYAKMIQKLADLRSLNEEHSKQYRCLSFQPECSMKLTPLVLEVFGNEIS
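Compounds are added to VDR with labelled SRC2-3 coactivator peptide and held 2 h at room temperature. Inhibition of the VDR–peptide interaction is then read as a change in fluorescence polarization.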
* hit, by the source's call; ? = inconclusive; & = joins results of further samples; [ ] = dose if it differs, or a comment. On the % scale 0 is the no-effect control and ±100 the full control effect; potency means the concentration at half of the fitted maximal effect. Only part of the results is shown; count on the stated rates, not on these rows.

VDR inhibitor,canonical_smiles
-13%,CN(C)c1cc[n+](CC(=O)N2c3ccccc3Sc3ccccc32)cc1
2%,CCOc1ccc(-c2noc(CCCC(=O)NC3CCCCC3)n2)cc1OC
0%,O=C1c2ccccc2C(=O)N1CCc1csc(-c2cccc(Cl)c2)n1
7%,COc1ccc(CC2NCCC3=CC(=O)CCC32)cc1O (stereo unspecified)
-1%,CC1(C)CC[C@]2(C(=O)O)CC[C@@]3(C)C(=CCC4[C@@]5(C)CCC(O)[C@@](C)(CO)C5CC[C@@]43C)C2C1 (stereo partly specified)
-5%,NC(=O)[C@@H]1CCCNc2c(F)cc([N+](=O)[O-])cc2C(=O)N[C@@H](CCC(=O)O)C(=O)N[C@@H](CO)C(=O)N1
3%,COc1ccc(NC(=O)C(=O)c2cn(CC(=O)N3CCOCC3)c3ccccc23)cc1OC
-10%,CCn1c(SCC(=O)c2cc(C)ccc2C)nc2cc(S(=O)(=O)N3CCOCC3)ccc21
-18%,COc1ccc(NC(=O)C2CCCN2S(=O)(=O)c2ccc(Cl)cc2)cc1 (stereo unspecified)
9%,CCCc1cc(=O)oc2cc(C)cc(OCC(=O)N3CCC(C(=O)O)CC3)c12
2%,Cc1nc2ccccn2c1C(=O)NNC(=S)Nc1ccccc1
-2%,O=C(CSc1nnc(CCCOc2ccc(Cl)cc2Cl)o1)Nc1ccc(C(=O)O)cc1
3%,Cc1cc(C(=O)CN2C(=O)NC(C)(c3ccccc3)C2=O)c(C)n1CC1CCCO1 (stereo unspecified)
-4%,O=C(CN1C(=O)COc2ccccc21)N1CCN(c2ccccc2F)CC1
3%,CC(C(=O)Nc1cccnc1)n1cc([N+](=O)[O-])cn1 (stereo unspecified)
3%,CCN(Cc1nc2cc(Cl)ccc2c(=O)[nH]1)C(=O)c1cc2c(s1)CCCCC2
-24%,BrC(/C=N/N1CCN(Cc2ccccc2)CC1)=C/c1ccccc1
2%,CCN(CC)S(=O)(=O)c1ccccc1/C=N\O
-2%,COCCn1c(=O)[nH]c2cc(C(=O)NCC3CCCO3)ccc2c1=O (stereo unspecified)
4%,CCCN(CCC)CCCNC(=O)c1sc2nc3n(c(=O)c2c1C)CCC3
-16%,COc1ccc(Br)cc1S(=O)(=O)n1c([N+](=O)[O-])cnc1C
?,Cc1ccccc1-c1nc(-n2ccnc2)c2ccccc2n1
-7%,COC(=O)c1ccc(COc2ncnc3sccc23)cc1
-5%,Cc1onc(-c2c(F)cccc2Cl)c1C(=O)Nc1nnc(C2CC2)s1
2%,Cc1ccc(N=Nc2c(C)[nH]n(-c3ccccc3)c2=O)cc1
-13%,Cc1cccc(Cl)c1NC(=O)N1CCCN(c2ncccc2[N+](=O)[O-])CC1
0%,Cc1ccc(C)c(NC(=O)C(c2ccccc2)N2CCOCC2)c1 (stereo unspecified)
-26%,CCOC(=O)CSc1n[nH]c(-c2ccco2)n1
-23%,CCCN1C2CCCC1CC(NC(=O)c1ccc(OC)cc1)C2 (stereo unspecified)
7%,Cc1ccc(/C=N/NC(=O)CSc2nnc(-c3ccccc3)n2-c2ccc(Cl)cc2)o1
0%,Cn1nc(C(=O)NCc2ccc(F)cc2)c2c1-c1ccccc1SC2
5%,CCCN(C(=O)c1cc2c(=O)n(CC)c3ccccc3c2s1)c1ccccc1F
1%,O=C(NCc1ccccc1Cl)C1CCCN(S(=O)(=O)c2cnc[nH]2)C1 (stereo unspecified)
1%,Cn1ccnc1CC(O)(c1ccccc1)c1ccccc1
17%,O=C(O)c1ccc(NS(=O)(=O)c2cc(C(=O)O)ccc2Br)cc1
10%,CCOC(=O)COc1cc(OCC(=O)OCC)c2c(=O)cc(-c3ccccc3)oc2c1
24%,COc1cc(NS(=O)(=O)c2ccc(NC(=S)NC(=O)c3ccco3)cc2)nc(OC)n1
3%,O=C(NC1CC(=O)N(c2ccc(F)cc2)C1)C1CCCC1 (stereo unspecified)
-13%,CNS(=O)(=O)c1cc(C(=O)OCC(=O)NC2CCCc3ccccc32)ccc1Cl (stereo unspecified)
-14%,O=C(NC(Cc1ccccc1)C(=O)O)OCC1c2ccccc2-c2ccccc21 (stereo unspecified)
7%,CCN1CCN(Cc2c(O)ccc3oc(C)c(C(=O)Nc4cccc(Cl)c4C)c23)CC1
-15%,COc1ccc(NC(=O)CCn2ccnc2)c(OC)c1
9%,COc1ccccc1N1CCN(c2ccc(=O)n(CC(=O)NCc3ccc(F)cc3)n2)CC1
0%,O=C(NNCC(O)COc1ccccc1)c1ccccc1 (stereo unspecified)
14%,CC(C)c1nn2c(=O)cc(CSc3ccccc3NC(=O)c3ccccc3F)nc2s1
11%,COc1cc2c(cc1OC)CN(CC(=O)Nc1ccc(C#N)cc1)CC2
-3%,CN(C)CCCNC(=O)N1c2ccccc2Sc2ccccc21
21%,CCCCn1c(=O)c(C(=O)OCC)c(O)c2ccccc21
-5%,CCc1nnc(NC(=O)CN2CCN(CC)CC2)s1
-10%,Cc1ccc2nsnc2c1NC(=O)c1ccccc1[N+](=O)[O-]

More compounds.
VDR inhibitor,canonical_smiles
-3%,Cc1nn(C(=O)c2cccnc2)c(C)c1C
-4%,COC(=O)c1cn(C(=O)OC)c2ccccc12
-17%,COc1ccc(C(=O)N2CC(=O)Nc3ccc(F)cc3C2c2ccc(F)cc2)c(OC)c1 (stereo unspecified)
?,O=C(NC1CCCCC1)NC1CC2CCCC(C1)N2C1CCCC1 (stereo unspecified)
-3%,CC[C@@H](C)[C@H](NC(=O)CCc1c(C)c2cc3c4c(oc3c(C)c2oc1=O)CCCC4)C(=O)O
21%,Cc1nnc(NC(=O)Nc2cccc(Cl)c2)s1
-6%,Cc1ccc(C(=O)COC(=O)CCCC(=O)NC2CCCCC2)cc1[N+](=O)[O-]
1%,Cc1ccccc1Nc1nc(Cl)c(C=O)s1
17%,O=C(Nc1cc(Cl)ccc1N1CCCC1)C1=COCCO1
0%,CC(C)(C)C(=O)O/N=C1/C(=O)N(c2ccccc2)c2ccccc21
2%&8%,COc1ccc(CNC(=O)CC(C)CC2=NS(=O)(=O)c3ccccc3N2)cc1 (stereo unspecified)
-4%,Cc1cc(NC(=O)c2ccc3c(c2)OCCO3)cc(-c2nc3ccccc3o2)c1O
-2%,COc1ccc(-n2c(Cc3cc(=O)[nH]c(=O)[nH]3)nnc2SCc2ccccc2)cc1
-4%,O=C1/C(=C/c2ccc([N+](=O)[O-])cc2)C=C(c2ccccc2)N1c1ccccc1
7%,COc1cc(NC(=O)c2cccs2)c(OC)cc1NC(=O)Cc1ccccc1
13%,Cc1c(O)ccc2c(CC(=O)N[C@@H](Cc3ccc(O)cc3)C(=O)O)cc(=O)oc12
-15%,CC1(C)c2[nH]c3ccccc3c2C[C@H]2C(=O)N(CCCO)CC(=O)N21
-15%,Cc1nc([N+](=O)[O-])cn1-c1ccc(N)cc1
-12%,O=C(CCNC(=O)c1ccc(Br)cc1)NCc1ccco1
-27%,O=C(Cn1cnc2cc([N+](=O)[O-])ccc2c1=O)NCc1ccccc1

Reprinted at random: 3 records from the list.
VDR inhibitor,canonical_smiles
-5%,Cc1onc(-c2c(F)cccc2Cl)c1C(=O)Nc1nnc(C2CC2)s1
7%,COc1cc(NC(=O)c2cccs2)c(OC)cc1NC(=O)Cc1ccccc1
3%,CCN(Cc1nc2cc(Cl)ccc2c(=O)[nH]1)C(=O)c1cc2c(s1)CCCCC2

Other compounds:
VDR inhibitor,canonical_smiles
17%,CC(C)(C)c1ccc(/C=N/N2C(=O)CSC2=S)cc1
32%&7%[activator],Cc1ccc(Cl)cc1NC(=O)CN1C(=O)COc2ccc(S(=O)(=O)N3CCOCC3)cc21
5%,Cc1ccc(Cn2c(=N)c(C(=O)NCC3CCCO3)cc3c(=O)n4ccccc4nc32)cc1 (stereo unspecified)
3%,CCc1cnc2c(c1SCC(=O)c1ccccc1)c(=O)n(C)c(=O)n2C
22%,Cc1ccc(C)n1NC(=O)c1ccccc1Cl
8%,COc1ccc(Cn2nnc(C(=O)Nc3ccc4c(c3)OCCO4)c2N)cc1Br
-8%,CCN1C(=O)[C@@H]2[C@@H](c3ccc(-c4ccc(F)cc4)c(OC)c3)N3CCCC[C@@]3(C(=O)OC)[C@@H]2C1=O
6%,[O-][n+]1cccc(C(O)c2ccccc2)c1 (stereo unspecified)
2%,CCCC(=O)n1nc(-c2ccco2)nc1N
-11%,CC(=O)Nc1ccc(C(=O)CSc2nnc(-c3ccccc3F)n2CCc2ccccc2)cc1
?,O=C(O)C1CCCN1c1nc(-c2ccc(Cl)c(Cl)c2)cc(C(F)(F)F)n1 (stereo unspecified)
11%,Cc1cc(C)cc(NC(=O)N2CCC(CN3CCCCCC3)CC2)c1
13%,C/C(=C\C(=O)c1ccc(Br)cc1)NCc1ccc(C)cc1
-14%,C=CCn1c(N)c(C(=O)NCC2CCCO2)c2nc3ccccc3nc21 (stereo unspecified)
-9%,CC(C)(C)NC(=O)C(c1ccc(F)cc1)N(Cc1ccco1)C(=O)CCC(=O)Nc1nccs1 (stereo unspecified)
-17%,O=[N+]([O-])c1ccc(S(=O)(=O)NCC(c2cccnc2)N2CCOCC2)cc1 (stereo unspecified)
-8%,CCNc1ncc2nc(CCc3ccccc3)c(=O)n(Cc3ccc(F)cc3)c2n1
-7%,C=CCOC(=O)C1=C(C)Nc2ncnn2C1c1cccs1 (stereo unspecified)
-3%,COC(=O)c1sc(NC(=O)c2ccoc2C)nc1C
6%,COc1ccc(CNC(=O)c2csc(Cc3ccc(OC)cc3)n2)cc1

Arranged by count of non-hydrogen atoms (ascending): part of the list above.
VDR inhibitor,canonical_smiles
2%,CCCC(=O)n1nc(-c2ccco2)nc1N
2%,Cc1ccc(N=Nc2c(C)[nH]n(-c3ccccc3)c2=O)cc1
-15%,CC1(C)c2[nH]c3ccccc3c2C[C@H]2C(=O)N(CCCO)CC(=O)N21
-13%,CNS(=O)(=O)c1cc(C(=O)OCC(=O)NC2CCCc3ccccc32)ccc1Cl (stereo unspecified)
-8%,CCNc1ncc2nc(CCc3ccccc3)c(=O)n(Cc3ccc(F)cc3)c2n1
10%,CCOC(=O)COc1cc(OCC(=O)OCC)c2c(=O)cc(-c3ccccc3)oc2c1
-11%,CC(=O)Nc1ccc(C(=O)CSc2nnc(-c3ccccc3F)n2CCc2ccccc2)cc1

(continued)
VDR inhibitor,canonical_smiles
-7%,C=CCn1c(SCC(=O)Nc2ccc3c(c2)OCCO3)nc2cc(C(=O)O)ccc2c1=O
6%,CC(=O)c1ccc(N2C(=O)CC(N3CCN(S(=O)(=O)c4cc(C)ccc4C)CC3)C2=O)cc1 (stereo unspecified)
-13%,Cc1sc(NC(=O)c2ccco2)c(C(c2ccncc2)N2CCOCC2)c1C (stereo unspecified)
1%,CN(C)c1ccc(P(=O)(OCc2ccccc2)C(O)c2cccnc2)cc1 (stereo unspecified)
-9%,Cc1nn(-c2ccccc2)c2sc(C(=O)Nc3cccc(Cl)c3)cc12
-6%,COc1ccc(NC(=O)C(NC(=O)CNC(C)=O)c2ccc(C)cc2)cc1 (stereo unspecified)
5%,CC(OC(=O)COc1ccc(C#N)cc1)C(=O)c1ccccc1 (stereo unspecified)
-1%,COC(=O)c1cc(NS(=O)(=O)c2cccs2)cc(NS(=O)(=O)c2cccs2)c1
4%,CC(/C=N/Nc1ccc2nncn2n1)=C\c1ccccc1
-2%,COc1cc(C(=O)Nc2cc3c(cc2C)n(C)c(=O)c(=O)n3C)cc(OC)c1OC
-12%,CCc1noc(C)c1C(=O)N(CCCOC)c1c(N)n(Cc2ccccc2)c(=O)[nH]c1=O
17%,Cn1cc(S(=O)(=O)N2CCCCCC2)cc1C(=O)N1CCN(c2cccc(C(F)(F)F)c2)CC1
2%,COc1ccc(S(=O)(=O)Nc2ccc(S(=O)(=O)NCC3CCCO3)cc2)cc1 (stereo unspecified)
-3%,COc1ccc(NC(=O)CSCC(=O)OCc2cccc(OC)c2OC)cc1
7%,O=C(NCCCN1CCOCC1)c1ccc(NS(=O)(=O)c2ccccc2)cc1
2%,COc1ccc(C2(O)CCN(CCCCOc3ccccc3)CC2)cc1
5%,COc1cccc(F)c1C(=O)NC(=O)Nc1ccc2nc(C)oc2c1
-1%,COc1ccc(C2CC(O)(C(C)(C)O)NO2)cc1 (stereo unspecified)
8%,COc1ccc(CNC(=O)C2CCN(c3nc(-c4ccccc4)nc4c3CCC4)CC2)cc1
-4%,O=c1cc2c(=O)oc3cc(O)c(O)oc3c2c(O)c1O
-3%,CCOC(=O)CS(=O)(=O)CC(=O)Nc1ccc([N+](=O)[O-])cc1OC
-11%,CCCCCOC(=O)C1=C(C)NC(=O)NC1c1ccccc1 (stereo unspecified)
-1%,C[C@H]1NC(=O)[C@@]2(C)[C@@H](c3ccccc3)[C@H]3COc4ccccc4[C@@H]3N2C1=O
6%,COC(=O)c1ccccc1NC(=O)N1CCN(C/C=C/c2ccccc2)CC1
